VDR inhibitor = Inhibitors of the vitamin D receptor (VDR): qHTS; Potency, µM, inactives show max response, negative = inhibition, most hits filed as inhibitors; 400,000 compounds, 0.93% hits; Vitamin D3 receptor (Homo sapiens), P11473; VDR-SRC2-3 peptide fluorescence polarization, 2 h; active means well fitted inhibition curve with a large enough effect; inconclusive means small, poorly fitted or top-dose-only effect, or another doubt; inactive means no such curve, though single readings can be large or run the other way; further: series mostly up to about 120 µM
Target sequence (P11473 whole entry, looked up): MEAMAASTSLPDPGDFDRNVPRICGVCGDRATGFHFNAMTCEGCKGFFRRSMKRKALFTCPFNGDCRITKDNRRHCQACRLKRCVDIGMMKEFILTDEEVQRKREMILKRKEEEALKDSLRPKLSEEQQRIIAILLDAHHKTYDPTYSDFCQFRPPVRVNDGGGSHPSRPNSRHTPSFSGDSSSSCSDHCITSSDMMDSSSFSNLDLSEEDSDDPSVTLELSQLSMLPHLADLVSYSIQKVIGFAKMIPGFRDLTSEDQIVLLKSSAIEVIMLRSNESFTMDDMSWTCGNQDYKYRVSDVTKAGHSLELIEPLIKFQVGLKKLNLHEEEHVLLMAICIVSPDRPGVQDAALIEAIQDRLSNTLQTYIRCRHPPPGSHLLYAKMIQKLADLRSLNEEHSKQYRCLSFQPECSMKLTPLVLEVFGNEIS
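The screen uses fluorescence polarization to detect compounds that interfere with recruitment of the SRC2-3 coactivator peptide to VDR; plates are read after 2 h at room temperature.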
Numbers without * were called inactive; ? = inconclusive; & = joins results of further samples. On the % scale 0 is the no-effect control and ±100 the full control effect; potency means the concentration at half of the fitted maximal effect. A portion of the library, so the mix of outcomes need not match the whole.

SMILES	VDR inhibitor
Cc1cccc(CN2CCCC(C(=O)N3CCCCC3)C2)c1 (stereo unspecified)	-25%
O=C(Nc1ccc([N+](=O)[O-])cn1)c1ccc2c(c1)OCO2	13%
COc1ccc(NC(=O)c2cc(-c3cccnc3)nc3c(C)c(C)ccc23)c(OC)c1	9%
Cc1ccc(C(=O)N(CCc2ccccc2)Cc2ccccc2)cc1S(=O)(=O)N1CCOCC1	-4%
Cc1ccc(C(=O)NCCNC(=O)COc2ccc(C)c(C)c2)cn1	20%
CCCn1c(N)c(N(CCOC)C(=O)C(C)Oc2ccc(F)cc2)c(=O)[nH]c1=O (stereo unspecified)	10%
O=C(COc1ccc(Cl)cc1)N(Cc1ccco1)C1CCS(=O)(=O)C1 (stereo unspecified)	-14%
CCCN1C(=S)SC(C)(C)C1/[N+]([O-])=C/c1ccc(S(=O)(=O)NC)cc1 (stereo unspecified)	29%
CCN1CCN(C(=O)CN2C(=O)COc3ccc(C)cc32)CC1	-11%
COC(=O)c1ccc(COC(=O)C(CCS(C)(=O)=O)N2C(=O)c3ccccc3C2=O)cc1 (stereo unspecified)	2%
Cc1nc2cc(N)ccc2n1C1CCCCC1	-23%
CCN(CC)S(=O)(=O)c1ccc(C(=O)Nc2cc(C)on2)cc1	-16%
COc1ccc2nccnc2c1[N+](=O)[O-]	-2%
CCOC(=O)c1c(N)n(CCOC(=O)c2cccs2)c2nc3ccccc3nc12	-26%
NC(=O)NC(CC(=O)NNC(=O)c1ccccn1)c1ccccc1Cl (stereo unspecified)	-6%
CCc1ccc(-c2cc(C)no2)cc1S(=O)(=O)NCCc1ccc(S(N)(=O)=O)cc1	7%
CC1Cc2ccccc2N1C(=O)CN1C(=O)COc2ccccc21 (stereo unspecified)	0%
CC(C)CCN1C(=O)c2ccc(C(=O)N3CCCCC3)cc2C1=O	6%
Cc1cccn2cc(CNC(=O)c3ccc(Br)o3)nc12	-11%
O=C(NCCCN1CCN(c2ccccc2)CC1)c1ccc2nc(Cc3ccccc3)oc2c1	-1%
CCN(CC)S(=O)(=O)c1cccc(NC(=O)COC(=O)C2CC3C=CC2C3)c1 (stereo unspecified)	-1%
O=C(CSc1ccc(Cl)cc1)NCC1CCCO1 (stereo unspecified)	-6%
CCCC(=O)Nc1nc(-c2ccc(OC)cc2)cs1	9%
c1ccc(C2=Nn3c(Cn4nnc5ccccc54)nnc3SC2)cc1	9%
O=C(Nc1n[nH]c(C(F)(F)F)n1)c1cccs1	-15%
CN(C)C(CNC(=S)Nc1ccc(F)cc1)c1cccnc1 (stereo unspecified)	0%
Cc1ccc(SCc2[nH]nc3c2C2(C(=O)Nc4ccc([N+](=O)[O-])cc42)C(C#N)=C(N)O3)cc1 (stereo unspecified)	-11%
C#CCn1c(=NC(=O)CSC(C)=O)sc2cc(F)ccc21	-6%
CCn1c(CSCc2ccccc2)n[nH]c1=S	13%
Cc1cccc(Cn2c(CN3CCC(C(=O)NC(C)C)CC3)cc3ccccc32)c1	12%
CN(C)CCCNc1nc(-c2ccccc2)nc2ccccc12	-4%
CN1CCN(C(=O)c2cc3nc(-c4ccccc4)cc(C(F)(F)F)n3n2)CC1	9%
O=C(COc1ccc(Br)cc1)Nc1ccccc1C(=O)NC1CC1	-28%
CCOc1ccc(-n2c(SCC(=O)Nc3ccc(CC)cc3)nc3n[nH]c(C)c3c2=N)cc1	-10%
O=C(NCc1ccccc1Cl)c1ccc(NC(=O)N2CCSc3ncccc32)cc1	3%
Cc1cc(OCC(=O)Nc2ncn[nH]2)c(C)c(C)c1Br	-7%
Cc1cc(C)cc(C(=O)Nc2cccnc2)c1	7%
NC(=O)c1nn(-c2ccccc2)nc1NC(=O)Cn1nnc(-c2ccccc2)n1	-16%
Cc1nc2ccc(S(=O)(=O)NCC(=O)N3CCc4ccccc4C3)cc2s1	0%
CCCCNC(=O)c1cc(-c2ccc(F)cc2)on1	-5%
COCCCNC(=O)c1c(N)n(/N=C/c2ccccn2)c2nc3ccccc3nc12	-1%
CCC(C)NC(=O)c1cnc2n(c1=O)CCS2 (stereo unspecified)	0%
O=C(NNS(=O)(=O)c1ccccc1)C(O)(c1ccccc1)c1ccccc1	0%
Cc1cc(Cl)nc(Cl)c1C(=O)NC(=O)NCCC(C)C	4%
CCCNC(=O)N[C@@H](CCSC)C(=O)OC	2%
Cc1cc(C(=O)Nc2ccc(S(=O)(=O)N3CCCC3)cc2)cs1	0%
Cc1ccccc1N(CC(=O)NC1CCCC1)C(=O)C1(C)CC(=O)N=C2C=CC=CN21 (stereo unspecified)	2%
S=C(NCc1ccncc1)Nc1ccc(Cl)c(Cl)c1	5%

Reprinted at random: 4 compounds from above
SMILES	VDR inhibitor
NC(=O)c1nn(-c2ccccc2)nc1NC(=O)Cn1nnc(-c2ccccc2)n1	-16%
O=C(NNS(=O)(=O)c1ccccc1)C(O)(c1ccccc1)c1ccccc1	0%
Cc1cc(C)cc(C(=O)Nc2cccnc2)c1	7%
CCCCNC(=O)c1cc(-c2ccc(F)cc2)on1	-5%

Three of the entries above in order of the VDR inhibitor value, rising:
SMILES	VDR inhibitor
COCCCNC(=O)c1c(N)n(/N=C/c2ccccn2)c2nc3ccccc3nc12	-1%
O=C(NNS(=O)(=O)c1ccccc1)C(O)(c1ccccc1)c1ccccc1	0%
Cc1cc(Cl)nc(Cl)c1C(=O)NC(=O)NCCC(C)C	4%

Additional entries follow.
SMILES	VDR inhibitor
CCOc1cc(C2c3c(-c4ccc(Br)cc4)n[nH]c3C(=O)N2c2ccc(Cl)cc2)ccc1O (stereo unspecified)	-18%
CC(C(=O)Nc1ccc(N2CCOCC2)cc1)N1C(=O)NC(C)(C)C1=O (stereo unspecified)	3%
COc1ccc(N(CC(=O)Nc2ccc(Cc3ccncc3)cc2)S(=O)(=O)c2ccccc2)cc1	-11%
O=C(O)CC(C(=O)Nc1ccc(F)cc1)C1CCCO1 (stereo unspecified)	1%
CCCSCCCNC(=O)CN1C(=O)COc2ccc(S(=O)(=O)N3CCCC3)cc21	-29%&-17%
O=C(c1ccc2c(c1)OCCO2)N1CCN(Cc2c(F)cccc2Cl)CC1	2%
CC(C)(C)NC(=O)COC(=O)c1cncc(Br)c1	-23%
COc1cc(OC)cc(C(=O)N2CCCc3ccccc32)c1	11%
CCN(C(=O)c1ccc(NC(C)=O)cc1)c1ccccc1	-7%
CCCCNc1c(-c2ccc(-c3cccc(Cl)c3)cc2)nc2ccc(Cl)cn12	-7%
Cc1ccc(S(=O)(=O)NCc2ccccc2)cc1C(=O)N1CCCC(C(F)(F)F)C1 (stereo unspecified)	-14%
COc1ccc(OCC(=O)Nc2ccc3nc(C)sc3c2)cc1	-1%
COc1ccc(CNS(=O)(=O)c2cc3c(cc2Cl)N(C(C)=O)CCO3)cc1	-5%
Cc1cc(C)cc(SCc2noc(C(=O)NCCN(C)C)c2C(=O)NCCN(C)C)c1	-24%
Cc1ccccc1NC(=O)c1cc[n+]([O-])cc1	2%
Cn1c(=O)c2c(nc(Cc3ccccc3)n2C)n(C)c1=O	-8%
COc1ccccc1NC(=O)Nc1cccc(C)n1	-3%
CC12CCC(C(=O)NNc3ccccc3)(C(=O)C1=O)C2(C)C (stereo unspecified)	-7%
Cc1ccc(Nc2cc(C)nc3ncnn23)c(C)c1	-27%
CCc1nc(SCc2ccc(OCC(C)C)cc2)n[nH]1	-10%
CCN(CCCNC(=O)CCc1nc(-c2ccc(OC)cc2)no1)c1cccc(C)c1	-9%
CC(C)c1ccc(CN(C(=O)c2cccs2)C2CCS(=O)(=O)C2)cc1 (stereo unspecified)	-18%
Cc1ccc(CCNC(=O)C2CCC(=O)N(Cc3cccc(F)c3)C2)cc1 (stereo unspecified)	10%
COCCN1Cc2cccc(C(=O)Nc3cccc(OC)c3)c2C1=O	-8%
CCOC(=O)c1nn(-c2ccccc2)c2nnc(Cc3ccc(Cl)cc3)c(=O)n12	10%
CCN=C1S/C(=C\c2cn(C(C)=O)nc2-c2ccccc2)C(=O)N1CC	11%
COc1cc(/C=N/O)ccc1OCc1ccc(C(=O)O)cc1	10%
c1cnc2ccc(-c3ccc4ncccc4c3)cc2c1	-3%
CCCNC(=O)c1onc(CS(=O)(=O)c2cc(C)cc(C)c2)c1C(=O)NCCC	-21%
CCOC(=O)c1c(NC(=O)c2ccc(S(=O)(=O)N(C)C)cc2)sc2c1CCN(C)C2	11%
O=C(CCS(=O)(=O)c1ccccc1)Nc1ccccn1	-9%
CCS(=O)(=O)c1ccc(C(=O)Nc2ccccc2OC)c(Cl)c1Cl	1%
C=CC[C@]12C[C@@H](OC)C(=O)C=C1O[C@@H](c1ccc(OC)c(OC)c1)[C@H]2C	-14%
COc1ccc(-c2c3c(cc4ncn(Cc5ccccc5)c24)COC3=O)cc1	3%
COCCCNc1nnc(Cc2ccc(Cl)cc2)c(=O)[nH]1	-4%
COc1ccc(-c2noc(CN(C(=O)c3ccc4c(c3)OCO4)C(C)C)n2)cc1OC	-1%
CCCc1cc(=O)[nH]c(Nc2ccc(C)c(O)c2)n1	-2%
COc1ccccc1OCCNC(=O)C(CCSC)NC(=O)COc1ccccc1 (stereo unspecified)	15%
OCCC1CN(Cc2cccc3c2OCO3)CCN1C1CCCCC1 (stereo unspecified)	-13%
C/C(=N\NC(=O)NC1CCCCC1)C1CCCCC1	-1%
CC(C)NC(=O)c1ccc(-c2ccccc2C(F)(F)F)o1	-16%
Cc1cc(C(=O)CNCc2ccco2)c(C)n1-c1ccc(F)cc1	-2%
NC(=O)c1ccc(NC(=O)CS(=O)(=O)c2cn(CC(=O)N3CCCCC3)c3ccccc23)cc1	-2%
COc1ccc(S(=O)(=O)N(C)CC(=O)N2CCN(Cc3ccccc3)CC2)cc1C	13%
Cc1ccc(/C=N/Nc2nncc(-c3ccccc3)n2)o1	4%
COCc1nc2ccccc2n1Cc1ccc(Br)cc1	-7%
Cc1ccc(-c2cc3nc(C)cc(C)n3n2)cc1	21%
CCCCCCC/C(C)=N/NC(=O)CC(=O)NCCc1ccccc1	-2%
CCOC(=O)C1=C(C)NC(=O)NC1c1ccc(OCC(=O)OC)c(OC)c1 (stereo unspecified)	-18%
COc1cccc(CNC(=O)C(=O)Nc2ccc3nc4n(c(=O)c3c2)CCCCC4)c1	14%
CNC(=O)c1nn(-c2ccc(C)cc2)ccc1=O	16%
S=C(NCc1ccc2c(c1)OCO2)Nc1ccc2nsnc2c1	-4%
Cc1cc(/C=C2\SC(=O)N(C)C2=O)c(C)n1-c1ccc(O)cc1	?
C=CCN(C(=O)CCC(=O)Nc1cc(C)on1)C(C(=O)NC(C)(C)C)c1cccc(OC)c1OC (stereo unspecified)	6%
OC(CN1CCN(c2ccccc2)CC1)Cn1c2ccccc2c2ccccc21 (stereo unspecified)	5%
CCc1ccc(CNC(=O)Cn2nc(-c3ccc(C)cc3)ccc2=O)cc1	-21%
O=C(N/C(=C/c1cccnc1)C(=O)N1CCOCC1)c1ccccc1F	-1%
C[C@H]1C=C(C(=O)N2CCOCC2)O[C@@H](OCc2ccc(CO)cc2)C1	-5%
CCOc1ccc(C(=O)NC(=S)Nc2ccc(NC(=O)c3ccco3)c(C)c2)cc1[N+](=O)[O-]	17%
CC(=O)Nc1ccc(S(=O)(=O)NCCC(=O)N2CCCCC2)cc1	3%

Already shown: entries from further up.
SMILES	VDR inhibitor
C=CCN(C(=O)CCC(=O)Nc1cc(C)on1)C(C(=O)NC(C)(C)C)c1cccc(OC)c1OC (stereo unspecified)	6%
OC(CN1CCN(c2ccccc2)CC1)Cn1c2ccccc2c2ccccc21 (stereo unspecified)	5%
CCc1ccc(CNC(=O)Cn2nc(-c3ccc(C)cc3)ccc2=O)cc1	-21%
O=C(N/C(=C/c1cccnc1)C(=O)N1CCOCC1)c1ccccc1F	-1%
C[C@H]1C=C(C(=O)N2CCOCC2)O[C@@H](OCc2ccc(CO)cc2)C1	-5%
CCOc1ccc(C(=O)NC(=S)Nc2ccc(NC(=O)c3ccco3)c(C)c2)cc1[N+](=O)[O-]	17%
CC(=O)Nc1ccc(S(=O)(=O)NCCC(=O)N2CCCCC2)cc1	3%

Other records:
SMILES	VDR inhibitor
O=C(Cc1cccs1)NCc1ccc2c(c1)OCO2	9%
COc1ccc2cc(-c3ccccc3F)ncc2c1	-13%
COc1ccc(/C=C(/C(=O)NCc2ccccc2)c2ccccc2)cc1	-8%
C=Cc1ccc(Cn2c(C)c(CNCc3ccccc3C)c(C(=O)O)c2C)cc1	8%
CC[N+](CC)(CCO)CCCN1C(=O)C2CC=C(Cl)CC2C1=O (stereo unspecified)	-3%
CC12CCC=CC1C(c1ccc3ccccc3c1Br)N(Cc1ccccc1)C2=O (stereo unspecified)	?
Cc1cccc(NC(=O)c2cc(-c3ccco3)nc3ccccc23)n1	-12%
Cc1nn(-c2ccccc2)c(C)c1NC(=O)COc1cc(F)ccc1[N+](=O)[O-]	12%
CN(C)CCCNC(=O)COc1ccc(Br)cc1Cl	-2%
O=C(O)C1CCCCC1C(=O)Nc1ccccc1Nc1ccccc1 (stereo unspecified)	-7%
O=C(OCC(=O)C12CC3CC(CC(C3)C1)C2)c1cnccn1	3%
O=C(O)C1Sc2[nH]c(=O)sc2C2c3cc(Cl)ccc3OC(=O)C12 (stereo unspecified)	-14%
CCOC(=O)C(=O)Nc1sc(C(=O)N2CCOCC2)c(C)c1C#N	15%
CCOc1ccc2oc(C(=O)OCC(=O)NCC3CCCO3)c(C)c2c1 (stereo unspecified)	-9%
O=C1CCCN1c1ccc(S(=O)(=O)N2CCN(c3ccccn3)CC2)cc1	-5%
COc1ccc(N(CC(=O)Nc2cccc(OC)c2)S(=O)(=O)c2c(C)nn(C)c2C)cc1	-1%
COC(=O)CCC(NC(=O)OCc1ccccc1)C(=O)NC(CC(C)C)C(=O)OC (stereo unspecified)	-17%
Cc1nnc(Nc2ccc(Cl)c(C(F)(F)F)c2)[nH]c1=O	-4%
O=C(c1ccc2c3c(cccc13)CC2)C1CCCN(C(=O)c2cccnc2)C1 (stereo unspecified)	-7%
